# From PubChem
# BJeLR viability – BJeLR cell viability loss | inhibition, % (no concentration beside the values) | BJeLR (HRASV12) viability, CellTiter-Glo ATP luminescence, 48 h; reference of the scale not given here | 300,000 compounds, 0.17% hits;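 active means replicate mean above 50%; inconclusive means above 50% but judged a plate artefact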;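 further: 50 nL library stock added to about 25 µL; numbers are from one replicate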
# Bead autofluor – flagged as autofluorescent in microsphere protease counterscreen. compound autofluorescence counterscreen, microsphere flow cytometry; active compounds read high. fluorescence intensity (no concentration beside the values). 360,000 compounds, 3.1% hits;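 active means at least 3 SD above the mean of all compounds, about 16000 in these data; inconclusive means too few beads counted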;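 further: 100 nL of 1 mM stock went into each well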
# RN4220 kill – S. aureus RN4220 growth inhibition; OD600, 16 h; inhibition, % (no concentration beside the values); 330,000 compounds, 0.33% hits; AID 1259311;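 active means z-score of -3 or lower and OD600 up to 0.18 on both plates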;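 further: plate controls were untreated cells for no effect and reference antibiotic for full effect; stock transfer was 100 nL into about 80 µL; one replicate is shown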
# PrP 5UTR inh – suppresses PrP 5' UTR mRNA reporter expression. cell-based PrP 5' UTR mRNA reporter, plate reader. inhibition, % (test concentration not listed). 340,000 compounds, 0.35% hits;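 active means every replicate at 50% or more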;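 further: 0 = median of the neutral control wells; tested in H4 reporter cells; numbers are from one replicate; inactives centre near -14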
# Sa ugtP lethal – compounds lethal to S. aureus RN4220 ugtP deletion mutant | OD600 growth, 16 h; some inactives read as strong as hits | growth inhibition, % (no concentration beside the values) | 330,000 compounds, 0.54% hits;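 active means z-score under -3 and OD600 up to 0.15 on both plates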;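 further: plate controls were untreated wells for no effect and antibiotic for full effect; wells of about 80 µL received 100 nL stock; the first replicate is given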
# Mtb hypoxia rep – inhibitors of hypoxia-regulated fluorescent reporter in Mycobacterium tuberculosis | M. tuberculosis hypoxia-regulated fluorescent reporter, fluorescence | fluorescence inhibition, % (no concentration beside the values) | 300,000 compounds, 0.1% hits;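 active means 35 to 45% if threefold the growth effect, above 45% if 1.5-fold the growth effect; inactive means the rest, general growth blockers included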;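 further: wells of about 50 µL received 100 nL stock; 0% = vehicle wells and 100% = reference inhibitor wells; whole bacteria with a GFP reporter of the hypoxia response; strong numbers were not always called active; many hits fall short of the cut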
# Mtb hypoxia rep growth – recorded beside Mtb hypoxia rep, whose call it bears; growth inhibition, %; measured here: M. tuberculosis growth (absorbance);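 0% = vehicle and 100% = reference antibiotic; read after six days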
# Active calls of the source: *; ? = inconclusive; nt = not tested or not shown. Compounds as they come (roughly 4% active in at least one column).
Compound,BJeLR viability,Bead autofluor,RN4220 kill,PrP 5UTR inh,Sa ugtP lethal,Mtb hypoxia rep,Mtb hypoxia rep growth
O=C(CSc1ncnc2[nH]ncc12)Nc1nc(-c2ccc(F)c(F)c2)cs1,1,3384,-1.3,8,7,16,3
C/C(Cc1ccccc1)=N/NC(=O)CNC(=O)C(c1ccccc1)c1ccccc1,3,4330,nt,4,nt,nt,nt
CCOC(=O)c1ccc2c(c1)nc(SCC(=O)c1ccco1)n2CC,-1,2894,4.9,8,-1,nt,nt
Cc1cc(C)n2nc(SCN3C(=O)c4ccccc4C3=O)nc2n1,8,6107,2.2,-25,-2,-3,-2
CCOC(=O)C1CCCN(C2CC(=O)N(c3ccccc3)C2=O)C1 (centres undefined),-8,2082,3.0,-16,7,1,-2
CC(C)CNC(=O)c1cccc2c1-c1ccccc1C2=O,-2,3512,1.6,-7,-1,15,7
Cc1ccc(-c2ccc(/C=N/NC(=O)CN3CCCC3)o2)cc1Cl,1,3302,nt,-7,nt,nt,nt
Clc1ccc(-c2nc(C=NN3CCOCC3)c3ccccn23)cc1,nt,nt,5.3,nt,12,6,4
Oc1ccc(/C=N/NC(=S)Nc2cccnc2)cc1O,-3,2697,nt,-26,nt,nt,nt
O=C(CC1C(=O)NCCN1Cc1ccc(-c2ccccc2)cc1)NCCCn1cccn1 (centres undefined),-3,5575,1.4,-22,-2,-5,7
Cc1ccc(C(=O)Nc2ccon2)cc1S(=O)(=O)N1CCCC1,-10,10627,-1.4,-20,12,-16,11
COc1ccc(Cl)cc1NC(=S)Nc1ccc(Cl)cn1,0,4334,2.8,-61,18,14,12
COc1ccccc1N1CCN(CC(=O)N2N=CCC2c2ccccc2)CC1 (centres undefined),-13,2070,2.7,-4,5,-8,-30
c1cc(Nc2ncnc3sccc23)cc(-c2nnc3n2CCCCC3)c1,0,4140,2.7,-17,-9,11,10
Cc1sc2ncn(CC(=O)NCCCC(=O)N(C)Cc3ccccc3)c(=O)c2c1C,-14,3739,6.4,-18,4,5,9
CC(NC(=O)c1nc[nH]c1C(=O)NCC(=O)OCc1ccccc1)c1ccccc1 (centres undefined),nt,nt,4.4,nt,-2,0,-3
COc1cc(SC)ccc1C(=O)N(C)Cc1ccccc1,2,2963,-0.1,-22,11,nt,nt
O=C(Cn1cnc(S(=O)(=O)N2CCCCC2)c1)NCc1ccco1,2,5564,1.0,-23,-1,-2,-4
CCCC(=O)NC(c1ccc(N(C)C)cc1)c1ccc2cccnc2c1O (centres undefined),38,2921,nt,37,nt,nt,nt
CSc1nc(Cl)cc(N(CCO)CCO)n1,5,2587,-1.4,-23,2,nt,nt
CNC(=O)c1[nH]cnc1C(=O)Nc1cccc(OC)c1,10,4925,2.0,-19,6,nt,nt
CC(C)OC(=O)c1cc(NC(=O)C2C3CCC(O3)C2C(=O)O)cc(C(=O)OC(C)C)c1 (centres undefined),-2,nt,11,7,-3,3,-19
COc1ccc(C)cc1-n1nnnc1SCC1CCCCO1 (centres undefined),-3,9285,-2.8,-9,2,1,16
O=C1CCCCCN1C(=O)c1cccc(C(=O)N2CCCCCC2=O)c1,4,2956,-18,-10,-2,11,5
CC(C)C(NS(=O)(=O)c1ccc2c(c1)OCCCO2)C(=O)O (centres undefined),1,1887,3.4,5,3,5,0
COc1ccccc1NC(=O)NC1(C(=O)N2CCCCCC2)CCCCC1,5,2365,8.6,-41,11,14,2
O=C(O)CCC(=O)OCC1CCCO1 (centres undefined),10,9314,-2.4,-4,-2,-8,4
Cc1ccc(NS(=O)(=O)c2cn(C)cn2)cc1,0,4695,-2.7,-16,8,nt,nt
CCNc1nc(NCC)nc(C(=O)NN)n1,-6,4432,2.9,4,-4,nt,nt
O=C1C2C3C=CC(C3)C2C(=O)N1/N=C/c1ccc(-c2ccccc2[N+](=O)[O-])o1 (centres undefined),18,7072,nt,-33,nt,nt,nt
COc1ccc(Cl)cc1C=NNC(=O)c1c(-c2ccccc2)noc1C,nt,nt,-2.1,nt,2,0,-4
O=c1c2[nH]c3ccccc3c2ncn1CCN1CCNCC1,-2,6957,6.1,-13,3,8,5
Cn1nnnc1SCC(=O)N1c2ccccc2Sc2ccccc21,-2,3126,1.5,-16,-2,nt,nt
Cc1ccc(NS(=O)(=O)c2cc(C(=O)NCCSC3CCCCC3)ccc2C)cc1,5,15668,9.4,-16,-18,2,9
CCN(CC)CCNC(=O)c1ccc(NC(=O)c2cccc(S(=O)(=O)N3c4ccccc4CC3C)c2)cc1 (centres undefined),13,6838,2.5,-15,-11,18,5
COc1ccc(N)cc1-n1c(C)ccc1C,13,2868,3.8,-46,16,6,6
COc1cccc(CNC(=O)c2cccs2)c1,-7,4373,4.6,-32,5,20,4
Cc1cc(C)c2c(N)c(C(=O)N3CCN(c4ncccn4)CC3)sc2n1,-1,2689,2.1,-20,5,nt,nt
COc1ccc(C2CC(=O)C=C(c3ccccc3OC)C2)cc1OC (centres undefined),nt,nt,9.0,nt,5,16,8
Cc1cc(NN=Cc2ccc(O)c(C)c2O)nc(-c2ccccc2O)n1,nt,nt,99*,nt,98*,5,3
COc1ccc(-c2ccc3ccccc3n2)cc1,33,3415,17,-36,9,4,0
Cc1ccc(C)c(N2CCN(C(=S)Nc3ccc4nc(N5CCOCC5)cc(C)c4c3)CC2)c1,-13,2397,3.1,0,3,12,9
COc1ccc(S(=O)(=O)N2Cc3ccccc3CC2C(=O)Nc2nccs2)cc1OC (centres undefined),-4,3663,3.7,-60,1,nt,nt
CCCn1c(-c2ccc(OC)cc2)nc2nc3ccccc3nc21,-7,22319*,2.9,-10,5,2,9
COc1ccc(N(CCCN2C(=O)c3cccc4cccc(c34)C2=O)C(=O)c2cccc(OC)c2)cc1,-7,2131,1.3,-12,0,-8,-5
Cc1cc(C)nc(NS(=O)(=O)c2ccc(Br)s2)c1,11,5735,2.6,-9,15,3,5
CCC(COC)Oc1cc(NCc2ccccc2)c2ncn(C(C)C)c2c1 (centres undefined),nt,3744,8.0,-6,-8,6,4
COc1ccc(CCCc2nnc(SCC(=O)Nc3nc(C)cs3)n2C)cc1,3,11415,3.8,-3,5,9,5
COc1ccc(C2=C(O)C(C)N(c3ccccc3)C2=N)cc1OC (centres undefined),9,9161,2.9,0,5,-3,2
Cc1ccc(Oc2c(C(N)=O)cc([N+](=O)[O-])cc2[N+](=O)[O-])cc1,4,1897,7.9,-7,15,nt,nt
CCN(CC)CCCCNc1ncc2cc(-c3cc(OC)cc(OC)c3)c(NC(=O)NC(C)(C)C)nc2n1,16,5663,3.0,25,0,8,4
CSc1ccccc1NC(=O)CN(C)C(=O)Cn1c(=O)oc2ccccc21,-8,6354,3.0,-15,13,2,3
CSc1ccc(CNc2nnnn2C)cc1,-1,4111,0.9,4,2,4,-5
Cc1ccc[n+](C2C(c3ccc([N+](=O)[O-])cc3)C(C#N)=C([S-])NC2(O)C2CC2)c1 (centres undefined),0,3473,-0.3,-11,13,1,17
COc1ccc(-c2nnc(SCC(=O)NCC3CCCO3)n2C)cc1 (centres undefined),1,4413,5.2,-27,11,7,-3
Cc1sc(NC(=O)C=Cc2ccco2)c(C(=O)OC(C)C)c1C,nt,nt,-2.6,nt,-13,-1,1
Cc1ccccc1C(=O)NCCCNC(=O)c1ccccc1C,11,5368,5.1,nt,5,4,-5
COc1ccccc1C(=O)C1CCCN(C(=O)c2ccc3c(c2)OCCO3)C1 (centres undefined),-4,4305,-0.9,-3,1,0,17
Cc1ccc(-c2cc(C(=O)Nc3c(C)n(C)n(-c4ccccc4)c3=O)[nH]n2)c(O)c1C,4,4690,0.2,-11,6,-9,5
Cc1ccc(C(C)C)c(OCCOCCN2CCNCC2)c1,5,nt,3.0,nt,4,13,6

# Additional entries follow:
Compound,BJeLR viability,Bead autofluor,RN4220 kill,PrP 5UTR inh,Sa ugtP lethal,Mtb hypoxia rep,Mtb hypoxia rep growth
Cc1ccc(N2CCN(c3cc(C)nc4nc(C)nn34)CC2)c(C)c1,12,5433,1.9,13,15,7,6
CC(OC(=O)c1cnccn1)C(=O)c1ccccc1 (centres undefined),2,5857,3.7,-5,5,0,-1
Cc1ccc(-c2nn(CCC(=O)NN3CCOCC3)c(=O)c3ccccc23)cc1,-1,5629,1.8,nt,0,8,11
CC(C)n1c(O)c(N=NC(=O)CNC(=O)Cc2ccc(Cl)cc2)c2ccccc21,1,5533,nt,-13,nt,nt,nt
CCCc1cc(=O)oc2cc(OCC(=O)NCCCn3ccnc3)c(Cl)cc12,0,4030,2.8,-20,5,13,4
CC(C)n1nc(C(=O)Nc2nc3ccc(S(C)(=O)=O)cc3s2)c2ccccc2c1=O,3,5999,2.3,-3,8,9,1
CCc1cc(Cn2nc(-c3ccccc3)cc2C(=O)NCc2ccc(C)cc2)on1,-5,3528,-6.0,-17,-3,6,3
CC(=O)c1sc(NC(=O)c2ccc(F)cc2)nc1-c1ccccc1,-6,3814,14,-38,-4,-7,0
O=C(NCc1ccco1)/C(=C\c1ccco1)NC(=O)c1ccco1,7,4054,2.1,-11,6,10,5
O=C(Nc1ccccc1N1CCN(C(=O)c2ccc(Cl)cc2)CC1)c1ccc([N+](=O)[O-])o1,-6,?,-2.0,-2,3,-10,1
CCCCC(=O)Nc1ccc(N2CCN(C(=O)CC)CC2)cc1,8,10512,1.9,-5,3,10,3
Cc1cc(C)c2nc(SC3CCOC3=O)cc(C)c2c1 (centres undefined),-6,1990,4.5,-9,24,1,7
COc1ccc(/C=C/C(=O)Nc2nc(C)cc(C)n2)cc1OC,-16,4284,2.8,-8,10,nt,nt
Cc1c(N=Cc2ccco2)n(Cc2ccccc2)c2ccccc12,nt,nt,3.6,nt,3,12,13
CC(C)CC1NC(=O)N(CC(=O)NC2CCCCC2)C1=O (centres undefined),nt,5338,1.6,-27,8,9,5
CSc1ncc(C(C)=O)c(C)n1,2,4588,3.9,-27,4,12,13
CCOC(=O)c1nn(-c2ccc([N+](=O)[O-])cc2)cc1O,-11,3844,4.5,28,5,-5,-1
CCn1c(=O)c2ccccc2n2c(SCC(=O)NCc3cccs3)nnc12,-5,23072*,1.5,-15,-1,8,9
COc1ccc(-n2c(SC(C)C(=O)Nc3ccc(NC(C)=O)cc3)nc3ccccc3c2=O)cc1OC (centres undefined),7,5228,2.2,-34,0,-11,7
COCCn1c(SC(C)C(=O)Nc2ncc(Cl)cc2Cl)nc2ccccc21 (centres undefined),25,2158,2.2,-15,6,nt,nt
CC(C)Oc1ccc(C(=O)NC(C)(C)CO)cc1,3,4877,-2.0,-3,5,nt,nt
O=C(NCc1nnc(SCC(=O)N2CCOCC2)o1)c1c(F)cccc1Cl,2,2162,-0.1,-8,5,-10,-5
CCCN1CCN(CCCNC(=O)Cn2cc3c(n2)CCCC3)CC1,7,5484,1.8,-14,3,nt,nt
CCN1CCn2c3c(c4cc(Br)ccc42)CCCC31 (centres undefined),5,2135,-4.3,-17,10,nt,nt
O=C(NC1CCN(S(=O)(=O)c2cccc(F)c2)CC1)c1ccc(F)cc1,14,3541,3.1,-34,11,17,17
CC(=O)Nc1sc(N/N=C/c2ccc(C)cc2)nc1-c1ccc(C)cc1,-2,4236,nt,-21,nt,nt,nt
COc1ccc(N2C(=O)Cc3ccccc3C2=O)cc1,1,3468,2.6,-28,13,13,7
CCn1c(=O)cc(OCC(=O)NCc2cccs2)c2ccccc21,-1,2165,2.8,-16,-7,10,6
O=c1c2ccccc2[nH]c(=S)n1CCN1CCc2ccccc2C1,1,5087,0.9,-15,5,1,0
Nc1nc(Nc2cccc(Cl)c2)nc(NCCO)c1[N+](=O)[O-],-4,3599,-2.0,2,-50,-4,-4
CCOc1ccc(N=C(NC#N)SCC(=O)NC2CC2)cc1,-2,23167*,6.8,-19,9,4,6
